Mtb H37Rv: M. tuberculosis H37Rv growth inhibitors, H37Rv strain (AID 1626); M. tuberculosis H37Rv growth inhibition; higher % means a stronger effect; one-dose inhibition, % at 10 µM; IC50 in µM for titrated hits; 0.95% of 220,000 active;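 active = confirmed in a dose series; inconclusive = inhibition above 80% but not taken into the dose series; inactive = below 80% or under 30% at every dose of the series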;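 also: bacteria incubated seven days before Alamar blue readout; 0% = bacteria only wells and 100% = bacteria with antibiotic wells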
YopH inh: blocks Yersinia enterocolitica YopH tyrosine phosphatase; fluorescence Ex485/Em525; inhibition, %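 (about 10 µM by stock and volumes)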; 0.16% of 140,000 active; AID 898;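 active = inhibition of 50% or more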;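 also: controls were vehicle for no effect and minimum signal wells for full effect; inactives centre near -20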
Arbovirus inh: arbovirus infection inhibition | arbovirus infection cell-based antiviral screen | inhibition, % at 10 µM | 0.37% of 200,000 active | AID 1251;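 active = inhibition from about 30%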;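 also: bluetongue infection of BSR cells; cell survival read as ATP light after 72 h; 0% = infected wells without compound and 100% = uninfected wells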
RecA splice inh: Mtb RecA intein splicing inhibition; inhibition, %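 (about 9 µM by stock and volumes)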; AID 2221; cell-free RecA intein splicing, fluorescence; 0.75% of 290,000 active; P9WHJ3; in the data active = inhibition above about 30%; inconclusive = no clear call, values can overlap the other calls;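 also: 0% = vehicle wells and 100% = reference inhibitor control wells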
Target sequence (P9WHJ3 whole entry, looked up, canonical isoform): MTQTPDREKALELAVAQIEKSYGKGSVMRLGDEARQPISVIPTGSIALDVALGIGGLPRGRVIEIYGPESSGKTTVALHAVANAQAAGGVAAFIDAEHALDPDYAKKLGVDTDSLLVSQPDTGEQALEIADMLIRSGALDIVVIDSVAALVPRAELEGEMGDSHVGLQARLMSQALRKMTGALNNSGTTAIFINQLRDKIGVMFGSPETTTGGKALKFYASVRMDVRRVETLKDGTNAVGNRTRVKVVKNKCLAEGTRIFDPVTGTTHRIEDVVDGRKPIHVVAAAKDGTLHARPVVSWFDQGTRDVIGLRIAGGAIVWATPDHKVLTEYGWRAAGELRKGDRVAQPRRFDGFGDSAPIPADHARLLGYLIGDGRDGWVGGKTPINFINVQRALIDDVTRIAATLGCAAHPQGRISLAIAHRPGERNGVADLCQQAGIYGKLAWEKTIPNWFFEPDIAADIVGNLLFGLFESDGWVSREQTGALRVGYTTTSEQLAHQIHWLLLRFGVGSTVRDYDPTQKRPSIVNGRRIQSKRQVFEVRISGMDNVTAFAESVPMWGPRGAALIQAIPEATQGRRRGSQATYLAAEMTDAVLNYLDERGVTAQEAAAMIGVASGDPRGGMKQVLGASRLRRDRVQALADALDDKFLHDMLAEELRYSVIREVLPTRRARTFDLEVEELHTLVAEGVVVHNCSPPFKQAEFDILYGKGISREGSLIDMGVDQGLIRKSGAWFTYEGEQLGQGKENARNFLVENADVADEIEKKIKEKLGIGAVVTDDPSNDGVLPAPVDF
Mtb bLac sens: beta-lactam sensitization of Mtb H37Rv | M. tuberculosis H37Rv growth with meropenem, percent inhibition; hits of this screen are not shown here | inhibition, % at 25 µM | 0.27% of 330,000 active;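 active = about 74% or more and at least 40 points above the plate without the antibiotic, then above 30% in a dose series; inconclusive = first-round hits that could not be retested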;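 also: growth measured after seven days incubation then overnight dye step; 0% = bacteria only wells and 100% = bacteria with antibiotic; twin plates without the antibiotic show which effects depend on it; some results filed as inactive read as strong as hits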
Arbovirus inh repeat: recorded beside Arbovirus inh, whose call it bears; inhibition, %; measured here: 10K subset replicate screen; many hits read low in the repeat;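 first of two repeat runs on a subset; 0% = infected and 100% = uninfected wells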
Numbers without * were called inactive; u = inconclusive; x = not tested or not shown; & = joins results of further samples. These rows are one share of the data; count on the stated rates, not on these rows.

Start of the listing, in advance:
SMILES	Mtb H37Rv	YopH inh	Arbovirus inh	RecA splice inh	Mtb bLac sens	others
CCc1cc2c(=O)n(-c3ccccc3)cnc2s1	-2%	-33	-4	0.3	-6
COc1cccc(C2c3c(-c4ccccc4)n[nH]c3C(=O)N2c2ccc(C(=O)O)cc2)c1 (stereo unspecified)	-4%	-8	0	4.1	-2
Cc1ccc2c(c1)N(CC(=O)N1CCCc3ccccc31)C(=O)CO2	4%	-41	4	-0.9	5
Cc1cccc(CN2CCCC(C(=O)c3ccc4c5c(cccc35)CC4)C2)n1 (stereo unspecified)	u	x	18	-1.9	95
CC(NCc1ccccc1O)C12CC3CC(CC(C3)C1)C2 (stereo unspecified)	x	x	x	-3.7	6

This part in full, from the start:
SMILES	Mtb H37Rv	YopH inh	Arbovirus inh	RecA splice inh	Mtb bLac sens	others
CCc1cc2c(=O)n(-c3ccccc3)cnc2s1	-2%	-33	-4	0.3	-6
COc1cccc(C2c3c(-c4ccccc4)n[nH]c3C(=O)N2c2ccc(C(=O)O)cc2)c1 (stereo unspecified)	-4%	-8	0	4.1	-2
Cc1ccc2c(c1)N(CC(=O)N1CCCc3ccccc31)C(=O)CO2	4%	-41	4	-0.9	5
Cc1cccc(CN2CCCC(C(=O)c3ccc4c5c(cccc35)CC4)C2)n1 (stereo unspecified)	u	x	18	-1.9	95
CC(NCc1ccccc1O)C12CC3CC(CC(C3)C1)C2 (stereo unspecified)	x	x	x	-3.7	6
COc1ccc(CN(C)Cc2cc(=O)n3ccsc3n2)c(OC)c1OC	-3%	x	3	-0.6	-6
Cc1ccnc(NC(=O)c2ccc(COc3c(F)c(F)cc(F)c3F)o2)c1	x	x	x	1.8	-7
CN(C)c1cccc2c1c(NC(=O)c1ccc(Cl)cc1)nn2C	11%	x	x	0.8	17
NC(=O)C1CCN(C(=O)Cc2ccc(-c3ccccc3)cc2)CC1	x	x	x	-1.1	3
CCOc1cc(/C=C2/NC(=O)N(CC(=O)Nc3cccc(C)c3)C2=O)ccc1OCC(N)=O	-2%	x	7	1.3	-1
CN(C)N1C(N)=C(C#N)C(c2ccccc2Cl)C2=C1CCCC2=O (stereo unspecified)	x	x	x	-3.7	0
COc1ccc(S(=O)(=O)NCc2ccco2)cc1N(C)S(=O)(=O)c1ccccc1	1%	x	2	-0.8	18
O=C(NNC(=O)C1CCN(Cc2cccc(F)c2)CC1)c1cccs1	0%	x	1	-2.5	0
CC(C)c1ccccc1NC(=O)COC(=O)COc1ccccc1[N+](=O)[O-]	-3%	x	-2	-2.9	3
NC(=O)c1ccccc1OCC(=O)O	-4%	-37	2	-1.3	-6
Cc1cc(NC(=O)CCSc2ccc(Cl)cc2)no1	-2%	x	1	-0.7	1
Cc1cccc(/C(N)=N/OC(=O)Cc2cccs2)c1	1%	-18	-4	3.2	12
CCCCNC(=O)Nc1ccccc1C(=O)NCc1ccco1	-4%	-20	3	0.7	16
COc1ccc(Cl)cc1N(C(=O)Nc1cccc(Cl)c1)C1=NCC(C)S1 (stereo unspecified)	3%	-6	12	2.1	1
CCOC(=O)c1cc2sc(C)cc2n1CC(=O)N1CCN(C(=O)c2ccco2)CC1	0%	-4	6	-2.3	-4
Cc1ccc(S(=O)(=O)N(C)c2ccc(OCC(=O)Nc3nc4ccccc4s3)cc2)cc1	15%	-4	11	6.2	66
CC(NC(=O)c1ccccc1F)c1nnc(SCC(=O)NC2=NCCS2)n1C (stereo unspecified)	x	x	x	3.1	-8
Cc1ccsc1C(=O)N1CCN(S(=O)(=O)c2cccc(F)c2)CC1	x	x	x	0.8	-4
S=c1[nH]nc(-c2n[nH]c3c2CCC3)n1/N=C/C=C/c1ccco1	-11%	x	x	5.9	-12
COCCOC(=O)C1=C(C)NC2=C(C(=O)CCC2)C1c1cc2c(cc1Br)OCO2 (stereo unspecified)	3%	-53	-1	-9.2	-1	Arbovirus inh repeat=-1
O=C(NCc1ccccc1)c1cc(-c2ccncc2)nc2ccccc12	x	x	x	0.1	24
CCOc1ccc(NC(=O)Cn2cc(C(C)=O)c3ccccc32)cc1	x	x	x	-2.8	6
Cc1ccccc1NC(=O)CN1CCc2ccccc2C1	x	x	x	2.2	2
CC(=O)N1c2ccc(S(=O)(=O)N3CCC(C(=O)N4CCN(c5cccc(C(F)(F)F)c5)CC4)CC3)cc2CC1C (stereo unspecified)	x	x	x	6.2	6
COc1ccc(CNC(=O)C(C)N=C2NS(=O)(=O)c3ccccc32)cc1OC (stereo unspecified)	-3%	-17	-3	-4.6	-2
Cc1ccc(-c2csc3nc[nH]c(=S)c23)cc1	u	-23	-7	2.4	82
CN(C)S(=O)(=O)c1cccc(C(=O)NCC2CCCO2)c1 (stereo unspecified)	4%	-14	0	4.6	-10
O=C(Nc1cccnc1)c1ccccc1O	-7%	-18	-3	0.3	-2
CCCCCC(C)n1[nH]c(=O)cc1N (stereo unspecified)	-8%	-12	-5	-3.2	-7
CSc1cccc(NC(=O)COc2cccc3ccccc23)c1	-9%	-1	-11	3.8	3
CCCOc1ccc(C(=O)Nc2ccccc2[N+](=O)[O-])cc1	1%	-10	x	1.2	-10
O=C(/C=C/c1ccccc1)CC(=O)c1ccccc1O	24µM*	x	-14	3.6	92
COc1cc2c(cc1OC)C(C(=O)NCc1cccnc1)C(c1cccnc1)N(C)C2=O (stereo unspecified)	-9%	-21	0	0.5	-1
CN(CC(=O)N1CCN(c2ccccc2F)CC1)S(=O)(=O)c1cnc[nH]1	-2%	-16	-2	-1.9	-3
O=C(NNS(=O)(=O)c1ccccc1[N+](=O)[O-])c1ccncc1	-3%	-10	1	3.0	-6
Cn1c(CNC(=O)CNC(=O)c2ccccc2)cc(=O)n(C)c1=O	x	x	x	-3.8	2
Cc1nnc(NC(=O)Cc2cccs2)s1	0%	-34	10	x	-5
O=C(NCC1CCCO1)c1cccc2ccccc12 (stereo unspecified)	x	x	x	-1.4	-2
COc1ccc(Nc2nc(N3CCCCC3)c3ccccc3n2)cc1	23%	0	-39	17	99
CN(C)S(=O)(=O)c1ccc(N/C=C(\[N+](=O)[O-])S(=O)(=O)c2ccccc2)cc1	x	x	x	13	2
O=C(NCCCN1CCCCC1)c1ccc(CS(=O)c2ccc(Cl)cc2)o1 (stereo unspecified)	x	x	x	1.4	2
COc1ccc(NC(=O)/C(C#N)=C\c2cc(C)n(-c3ccc(Oc4ccc([N+](=O)[O-])cn4)cc3)c2C)cc1	-12%	-3	11	-2.3	9
CCOC(=O)c1cc([N+](=O)[O-])sc1NC(=O)c1ccc(S(=O)(=O)N2CC3(C)CC2CC(C)(C)C3)cc1 (stereo unspecified)	-1%	-5	22	1.8	6
CCn1c(SCC(=O)OC(C)C)nnc1-c1ccccc1	-11%	x	x	-0.3	-1
O=C(NNc1cccc(Cl)n1)Nc1ccc(F)cc1	7%	x	1	-4.6	1
C[C@@H](C(=O)Nc1ccc2ccccc2c1)[C@H]1C[C@]1(C)[C@H](NP(=O)(c1ccccc1)c1ccccc1)c1ccccc1	53%	-15	-16	x	x
CC1=C(C(=O)OCc2ccccc2)C(c2ccccc2Cl)NC(=O)N1CCCCCC(=O)O (stereo unspecified)	x	x	x	1.7	-4
Cc1ccc(C(=O)N/C(=C\c2ccc(-c3ccc(Br)cc3)o2)C(=O)NCCCN(C)C)cc1	15µM*	x	-29	-2.7	99
Cc1nc(CN2CCCC2=NC#N)n(-c2ccccc2)n1	5%	-14	-3	-0.7	-2
O=C(CC(NC(=O)c1ccccc1)c1ccccc1)Nc1ccc(F)c(F)c1 (stereo unspecified)	5%	x	6	-1.8	1
COc1cccc(CN(CC(=O)NCc2ccccc2)C(=O)c2csnn2)c1	x	x	x	-0.1	-2
CCc1c(C)nc(N)n2c(SCC(=O)Nc3ccccc3)nnc12	-2%	-39	-4	2.1	-4
Cc1cccc(OCCCC(=O)Nc2ccc(S(=O)(=O)Nc3onc(C)c3C)cc2)c1	-3%	-10	-5	4.8	13
Cc1cc(C)n(-c2nc(C(F)(F)F)nc3ccccc23)n1	2%	x	3	0.0	-3
COc1ccc(OC)c(Nc2ncnc3c2cnn3-c2ccccc2)c1	5%	11	-1	2.0	-2

Part of the list above in order of SMILES length, rising:
SMILES	Mtb H37Rv	YopH inh	Arbovirus inh	RecA splice inh	Mtb bLac sens	others
O=C(NNc1cccc(Cl)n1)Nc1ccc(F)cc1	7%	x	1	-4.6	1
Cc1cc(C)n(-c2nc(C(F)(F)F)nc3ccccc23)n1	2%	x	3	0.0	-3
CCc1c(C)nc(N)n2c(SCC(=O)Nc3ccccc3)nnc12	-2%	-39	-4	2.1	-4
COc1cccc(CN(CC(=O)NCc2ccccc2)C(=O)c2csnn2)c1	x	x	x	-0.1	-2
O=C(CC(NC(=O)c1ccccc1)c1ccccc1)Nc1ccc(F)c(F)c1 (stereo unspecified)	5%	x	6	-1.8	1

Remaining list, next part.
SMILES	Mtb H37Rv	YopH inh	Arbovirus inh	RecA splice inh	Mtb bLac sens	others
NC(c1ccccc1)c1cccnc1 (stereo unspecified)	x	x	x	-1.1	-1
COc1ccc(CCn2c(-c3ccncc3)n[nH]c2=S)cc1OC	5%	x	6	-1.1	-8
Fc1ccc([C@@H]2CCNC[C@H]2COc2ccc3c(c2)OCO3)cc1	2%&8%&5%	x	-22	-0.5&1.9	-1&-4&-2
CN(C)CCNC(=O)c1cc2ccccc2oc1=O	3%	36	11	6.2	1
O=C(NCCSCc1ccc(Cl)cc1Cl)c1ccc(CN2CCOCC2)cc1	13%	-37	-10	4.6	-2
Cc1nn(CCCNC(=O)C2CCCO2)cc1Br (stereo unspecified)	7%	-31	0	4.3	-5
CC(C)Cc1cc(C(=O)Nc2sc3c(c2C#N)CCCC3)no1	9%	-17	-5	3.4	0
COc1ccc(S(=O)(=O)N2CC3CCCN3c3ccc(C(F)(F)F)cc32)cc1 (stereo unspecified)	-6%	-36	1	-0.4	-2
Cc1ccc(CNC(=O)CSc2ncccn2)cc1	3%	-28	0	1.8	0
Clc1ccc(Nc2ncnc3ccc(Br)cc23)cc1	30%	-32	19	3.9	51
CCCN1C(=O)/C(=C/c2ccc(C)o2)NC1=S	-1%	x	0	9.5	-4
COc1ccc(/C=C/C(=O)NC(=S)Nc2ccc(Br)cn2)cc1	x	x	x	-3.4	6
CCOC(=O)c1c(C)oc2c1c(CN1CCN(CCO)CC1)c(O)c1ccccc12	4%	x	-34	x	x
COc1ccc(CC(C)Nc2ccccc2F)cc1 (stereo unspecified)	x	x	x	0.6	-1
CC(/C=N/NC(=O)CCn1nnc2ccccc21)=C\c1ccccc1	68%	-12	-14	1.2	-2
COc1ccc(S(=O)(=O)Nc2cc(C)ccc2OC)cc1C	4%	-7	-14	2.9	-3

No new results follow: entries from further up.
SMILES	Mtb H37Rv	YopH inh	Arbovirus inh	RecA splice inh	Mtb bLac sens	others
CCc1cc2c(=O)n(-c3ccccc3)cnc2s1	-2%	-33	-4	0.3	-6
COc1cccc(C2c3c(-c4ccccc4)n[nH]c3C(=O)N2c2ccc(C(=O)O)cc2)c1 (stereo unspecified)	-4%	-8	0	4.1	-2

Assay outcomes (PubChem)
